# Screens deposited in PubChem BioAssay by National Center for Advancing Translational Sciences (NCATS).
# D2 PAM: Beta-Arrestin HTS for Positive Allosteric Modulators of the Human D2 Dopamine Receptor: Potentiators. D(2) dopamine receptor (Homo sapiens), P14416. DiscoveRx D2 beta-arrestin cells, luminescence, 90 min; 100% = 57 uM dopamine signal. potentiation, % (test concentration not listed). actives 0.23% (n = 360,000). AID 624464, 2012; active = potentiation of 50% or more; inconclusive = 30% to 50%; inactive = 30% or less;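 further: compound concentration not given in the record; tested on top of an EC20 dose of dopamine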
#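 D2 cells co-treated with compound plus 50 nM dopamine (EC20) for 90 min at 37 deg C to detect potentiation. Beta-arrestin recruitment was read as enzyme-fragment luminescence after 1 h at ambient temperature. Full response was set by 57 uM dopamine.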
# ClpP mod: qHTS Assay for Activators of ClpP. AID 651965, 2013. actives 1.9% (n = 340,000). ATP-dependent Clp protease proteolytic subunit (Bacillus subtilis (strain 168)), P80244. purified B. subtilis ClpP, FRET peptide cleavage, 20 min. Potency, µM (top dose mostly 57.5 µM), inactives show top-dose activity change, negative = active; active = well fitted falling curve with a large enough effect; inconclusive = small, poorly fitted or top-dose-only effect; inactive = no such curve, though single readings can be large or run the other way; further: potency means the concentration at half of the fitted maximal effect; the source files actives as falling curves though it sought activators and does not explain the sign; nearly all actives have a fitted effect of over 65% in size; many hits overshoot -100%
# Target sequence (P80244 whole entry, looked up): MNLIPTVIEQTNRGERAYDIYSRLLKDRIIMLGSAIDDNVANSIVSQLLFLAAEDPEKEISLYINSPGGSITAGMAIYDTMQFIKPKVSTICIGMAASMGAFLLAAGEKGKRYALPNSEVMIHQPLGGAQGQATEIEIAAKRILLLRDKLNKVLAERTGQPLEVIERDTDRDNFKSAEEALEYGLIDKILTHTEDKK
#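 FRET quenching reversal measured ClpP activation: 10 microg/mL B. subtilis ClpP at pH 8 with the FRET-FV decapeptide, read at 430 nm after 320 nm excitation. The 20-min minus 0-min signal was scaled between DMSO/no-enzyme wells and ADEP (5.8 microM final).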
# Menin-MLL FL inh: qHTS Assay for Inhibitors Targeting the Menin-MLL Interaction in MLL Related Leukemias: Competition With Fluorescein Labeled MLL-derived Peptide | Fluorescence polarization, fluorescein-MLL peptide displacement from menin | FP activity change, % at 61.4 µM | 290,000 tested, under 10 active | AID 1766, 2009; inconclusive = falling polarisation curve, or a change in total fluorescence; inactive = total fluorescence flat and polarisation flat or rising; no compound was filed as active; the % refers to the polarisation; negative = inhibition;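 further: % of control where 0% means no effect; inhibitors lower the polarisation; unlabelled MLL peptide was the positive control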
# gsp agonist: qHTS for Agonist of gsp, the Etiologic Mutation Responsible for Fibrous Dysplasia/McCune-Albright Syndrome: qHTS | gsp mutant cells, cAMP HTRF, 30 min; control for the full effect not named in the record | Potency, µM (titrated, usually from 76.9 µM), for the others: top-dose activation (cAMP increase), usual class: activators | actives 0.13% (n = 340,000); active = well fitted activation curve with a large enough effect; inconclusive = small, poorly fitted or top-dose-only effect, or another doubt; inactive = no such curve, though single readings can be large or run the other way; cell line not stated here;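 further: phosphodiesterase inhibitor Ro 20-1724 added with compounds to block cAMP breakdown; potency means the concentration at half of the fitted maximal effect; nearly all actives have a fitted effect of over 60% in size; about a fifth of the inactives were tested at one dose only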
#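 Cells in DMEM/10% FBS with G418 were pretreated with compounds in DMSO plus […] (300 uM stock) for 30 min at 37C. cAMP was measured by HTRF (cAMP-d2 plus anti-cAMP antibody-K) after 30 min at room temperature.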
# TRPV1 potentiator: HTS Assay for Compounds that Act as Potentiators of the Vanilloid Receptor 1; Transient receptor potential cation channel subfamily V member 1 (Homo sapiens), Q8NER1; actives 0.02% (n = 320,000); TRPV1-expressing cells, Fluo-8 calcium influx, capsaicin EC20 potentiation; host cell line not named in the record; control for the full effect not named in the record; potentiation, % at 8.33 µM; AID 540277, 2011; active means potentiation above 80%; inconclusive means 30% to 80%; inactive means below 30%; further: 0% is about no effect
# Target sequence (Q8NER1 whole entry, looked up): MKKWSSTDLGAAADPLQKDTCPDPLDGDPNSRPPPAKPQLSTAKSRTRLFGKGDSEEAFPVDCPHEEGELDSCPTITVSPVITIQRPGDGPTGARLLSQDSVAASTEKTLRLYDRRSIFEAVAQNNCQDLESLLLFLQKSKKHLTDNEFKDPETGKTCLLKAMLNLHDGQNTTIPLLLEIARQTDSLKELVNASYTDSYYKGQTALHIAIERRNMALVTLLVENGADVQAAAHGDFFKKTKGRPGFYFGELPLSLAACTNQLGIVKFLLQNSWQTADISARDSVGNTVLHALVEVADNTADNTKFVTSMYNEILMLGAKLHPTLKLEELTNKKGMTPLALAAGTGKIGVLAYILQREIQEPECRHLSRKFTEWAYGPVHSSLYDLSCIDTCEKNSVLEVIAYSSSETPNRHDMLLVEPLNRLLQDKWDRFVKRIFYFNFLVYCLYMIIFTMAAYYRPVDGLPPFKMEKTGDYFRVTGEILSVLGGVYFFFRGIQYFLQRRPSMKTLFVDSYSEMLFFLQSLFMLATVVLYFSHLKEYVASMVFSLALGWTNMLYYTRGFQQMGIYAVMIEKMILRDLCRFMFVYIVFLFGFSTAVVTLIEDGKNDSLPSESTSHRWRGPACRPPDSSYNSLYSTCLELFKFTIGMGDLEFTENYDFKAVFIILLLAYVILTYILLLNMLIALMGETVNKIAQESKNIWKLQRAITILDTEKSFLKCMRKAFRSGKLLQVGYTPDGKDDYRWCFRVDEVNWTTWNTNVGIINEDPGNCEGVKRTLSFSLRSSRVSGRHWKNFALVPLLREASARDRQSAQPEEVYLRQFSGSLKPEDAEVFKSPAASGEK
#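 Fluo-8 calcium influx in TRPV1-expressing cells, kinetic read (ex 480/em 520 nm). Compound added and read 3 min for agonist activity, followed by capsaicin at EC20 final and 2 min further read for enhancement.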
# gsp antagonist: qHTS for Antagonists of gsp, the Etiologic Mutation Responsible for Fibrous Dysplasia/McCune-Albright Syndrome: qHTS | gsp-mutant cells, cAMP HTRF, 30 min; control for the full effect not named in the record | Potency, µM (titrated, usually from 76.9 µM), for the others: at the highest dose activity change, negative = inhibition, most hits filed as inhibitors | actives 0.4% (n = 340,000); active = falling curve of any shape with a large fitted effect; inconclusive = falling curve, mostly with a smaller effect; inactive = flat or rising curve; cell line not stated here;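 further: intracellular cAMP measured with PDE inhibitor Ro 20-1724 present during compound exposure; potency means the concentration at half of the fitted maximal effect; on the % scale 0 is the no-effect control and ±100 the full control effect; nearly all actives have a fitted effect of over 65% in size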
#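 Measurement of cellular cAMP by homogeneous time-resolved fluorescence following a 30 min compound exposure at 37C. The PDE inhibitor […] was present throughout; the assay buffer was DPBS with 0.05% BSA and 0.005% Tween 20.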
# Sfp PPTase inh: qHTS Assay for Inhibitors of Bacillus subtilis Sfp phosphopantetheinyl transferase (PPTase). actives 3.5% (n = 310,000). Biochemical Sfp PPTase activity, qHTS. 4'-phosphopantetheinyl transferase ffp (Bacillus subtilis), Q9F4F7. Potency, µM, for the others: max response, negative = inhibition, actives largely listed as inhibitors; active means well fitted inhibition curve with a large enough effect; inconclusive means small, poorly fitted or top-dose-only effect, or another doubt; inactive means no such curve, though single readings can be large or run the other way;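 further: the enzyme is Sfp with the accession as filed and its product quenches rhodamine fluorescence; potency means the concentration at half of the fitted maximal effect; 0% = enzyme reaction without inhibitor and -100% = no enzyme wells; top concentration of the series not given in the record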
#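 With Hepes-Na pH 7.6 buffer containing 10 mM MgCl2, Sfp (15 nM) modified BHQ-2-YbbR (12.5 uM) using rhodamine-CoA (5 uM). Two reads 30 minutes apart at 525/598 nm yielded each well's rate.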
# * hit, by the source's call; ? = inconclusive; · = no result given; [ ] = dose if it differs, or a comment.
SMILES,D2 PAM,ClpP mod,Menin-MLL FL inh,gsp agonist,TRPV1 potentiator,gsp antagonist,Sfp PPTase inh
COc1ccc(/C=[N+](\[O-])C2N(c3ccccc3)C(=S)SC2(C)C)cc1OC (stereo not given),-1,-0.3%,5.3,-6%[15.4 µM],-8,-1%,10%
Cc1ccc(CNC(=O)CSc2nc3[nH]ncc3c(=O)[nH]2)cc1,-2,0.3%,6.1,6%[15.4 µM],16,7%,10%
COc1ccc(N(CC(=O)Nc2ccccc2OC)S(=O)(=O)c2ccccc2)cc1Cl,-1,0.9%,-4.2,-1%,-1,-2%,15%
COc1ccccc1CN1CCN(Cc2nc(-c3ccc(C)cc3)oc2C)CC1,-5,-6.9%,17,2%,-2,2%,7%
COC(=O)c1ccc(S(=O)(=O)N2CCN(C)CC2)n1C,0,1.0%,-0.8,-21%,?,16%,7%
COc1ccc(N2CCN(c3nccs3)CC2)cc1,1,·,6.9,-29%,-41,4%,8%
Cc1ccc2c(C)c(C(=O)Nc3c(C)n(C)n(-c4ccccc4)c3=O)oc2c1C,26,-0.5%,2.6,4%,7,-3%,10%
O=C(NNC(=O)c1cccnc1)Nc1ccc(Cl)c(Cl)c1,-26,-0.5%,3.5,0%,8,-10%,-14%
CCOC(CC(=O)NNC(=O)c1c(-c2c(Cl)cccc2Cl)noc1C)OCC,-1,·,7.3,-25%,3,10%,15%
COc1ccc(Cl)cc1NC(=O)CSc1nc2ccsc2c(=O)n1CC1CCC(C(=O)O)CC1 (stereo not given),-7,-2.5%,·,1%,17,-9%,-4%
O=C(CN1CCCc2ccccc21)NC(=O)NCc1ccco1,3,-3.1%,?,19%,27,8%,35µM*
Cc1ccc(-c2nn3c(C)nnc3c3ccccc23)cc1S(=O)(=O)N1CCN(CCO)CC1,-13,-16%,2.5,?,8,6%,19%
CC(NC(=O)c1cc(S(=O)(=O)N2CCOCC2)ccc1N1CCCC1)c1ccc(Cl)c(Cl)c1 (stereo not given),11,-13%,·,1%[15.4 µM],-4,-5%,·
O=[N+]([O-])c1ccc(C2(O)CN(c3ccccc3)C3=[N+]2CCS3)cc1 (stereo not given),-11,·,10,-1%[15.4 µM],1,-2%,-93%
Cc1ccc(SCc2ccc(C(=O)N3CCCC3)cc2)cc1,4,·,-7.7,24%[15.4 µM],-14,-47%,-11%
COc1ccc(CCN(C(=O)C(F)(F)F)C(C(=O)NC2CCCC2)c2cccs2)cc1 (stereo not given),-21,0.5%,1.3,-33%[inhibitor],·,-2%,8%
CC1=C(C(=O)OCC(C)C)C(c2cccs2)NC(=S)N1 (stereo not given),22,0.6%,6.3,4%,0,-2%,6%
Cc1cc(NC(=O)Nc2ccc(Cl)cc2)no1,-2,·,1.9,0%,-16,-4%,8%
CCSc1nnc(NC(=O)CSc2nc(CC)nc3c2c(=O)n(C)c(=O)n3C)s1,-4,0.6%,-2.5,-14%,25,-5%,?
Cc1ccc(C)c(NC(=O)C2CC(=O)N(C(C)C)C2)c1 (stereo not given),-3,0.3%,0.9,?,-3,11%,-7%
COCCNC(=O)C1CC(c2ccc(F)cc2)=NO1 (stereo not given),8,-1.5%,-0.4,15%,8,11%,12%
CCCOC(=O)Cc1c(O)c2ccccc2[nH]c1=O,-22,25µM*,1.4,13%,2,-5%,7%
O=C(NCC(=O)N(Cc1ccco1)C(C(=O)NC1CCCC1)c1ccncc1)c1cccs1 (stereo not given),-15,-1.2%,15,-7%,-20,4%,-10%
CCOC(=O)c1c(NC(C)=O)sc2c1CCC(C=O)=C2Sc1ccccc1,-18,0.0%,?,?,-4,12%,50µM*
CC(C)N(Cc1ccccc1)C(=O)C1CCCN(c2ncnc3c2nc2n3CCCCC2)C1 (stereo not given),-9,2.6%,·,-25%,-12,-17%,16%
CC(C)Cn1c(/C=C/c2ccccc2)nc2ccccc21,-36,7.1µM*,1.1,21%,6,?,-19%
O=C(Nc1nccs1)c1ccc(-c2cccc([N+](=O)[O-])c2)o1,2,·,5.0,17%[15.4 µM],-15,·,-14%
Cc1cc(NC(=O)c2cn(C3CCCCC3)c(=O)c3c2c2ccccc2n3C)no1,0,4.5%,1.1,29%,·,-7%,5%
Cc1nc2c(cnn2CCO)c(=O)[nH]1,-3,·,·,-22%,·,4%,·
O=C(CN1c2ccccc2Sc2ccccc21)N/N=C/c1ccccc1,8,1.6%,2.3,2%[15.4 µM],-38,-9%,16%
Cc1cc(C)cc(N(CCC#N)C(=O)CSC2=Nc3ccccc3C3CC=NN23)c1 (stereo not given),-6,·,0.4,0%[15.4 µM],-17,-9%,0%
COc1cc(OC)c(NS(=O)(=O)c2cc(C(=O)NCCCN3CCOCC3)ccc2C)cc1Cl,4,1.4%,·,-26%,·,·,·
CCOc1ccccc1NC(=O)CSc1nnnn1Cc1ccccc1,-8,1.1%,0.1,-16%,-3,-11%,5%
COc1c(C)cccc1C(=O)Nc1ccc(N2CCN(S(C)(=O)=O)CC2)cc1,1,28%,0.8,21%,19,4%,13%
O=C(COC(=O)c1ccc(Br)o1)Nc1ccc(N2CCOCC2)cc1,-3,2.2%,·,?,8,-38%,·
COc1cccc(/C=N/NC(=O)c2nc(-c3ccccc3)cc(-c3ccccc3)n2)c1O,-23,-2.1%,4.7,-7%,?,-3%,-2%
COc1ccc(C(=O)NNC2=NCCCCC2)cc1,-11,·,-6.1,3%[15.4 µM],1,-9%,-12%
O=C(CN1C(=O)NC2(CCCCCC2)C1=O)N1CCN(c2ccccc2)CC1,-2,-0.2%,·,7%,-2,9%,·
O=[N+]([O-])c1ccc(N2CCN(C(=S)Nc3ccc(F)cc3F)CC2)cc1,-13,·,1.0,7%[15.4 µM],-17,·,8%
COc1ccccc1-n1cnnc1SCC(=O)N1CCOCC1,-4,·,-1.1,-26%,7,7%,27%

# Structural class: those above containing a thiophene ring, fused or not.
SMILES,D2 PAM,ClpP mod,Menin-MLL FL inh,gsp agonist,TRPV1 potentiator,gsp antagonist,Sfp PPTase inh
COc1ccc(Cl)cc1NC(=O)CSc1nc2ccsc2c(=O)n1CC1CCC(C(=O)O)CC1 (stereo not given),-7,-2.5%,·,1%,17,-9%,-4%
COc1ccc(CCN(C(=O)C(F)(F)F)C(C(=O)NC2CCCC2)c2cccs2)cc1 (stereo not given),-21,0.5%,1.3,-33%[inhibitor],·,-2%,8%
CC1=C(C(=O)OCC(C)C)C(c2cccs2)NC(=S)N1 (stereo not given),22,0.6%,6.3,4%,0,-2%,6%
O=C(NCC(=O)N(Cc1ccco1)C(C(=O)NC1CCCC1)c1ccncc1)c1cccs1 (stereo not given),-15,-1.2%,15,-7%,-20,4%,-10%
CCOC(=O)c1c(NC(C)=O)sc2c1CCC(C=O)=C2Sc1ccccc1,-18,0.0%,?,?,-4,12%,50µM*

# Remaining list, next part
SMILES,D2 PAM,ClpP mod,Menin-MLL FL inh,gsp agonist,TRPV1 potentiator,gsp antagonist,Sfp PPTase inh
COc1ccc(OCC(=O)Nc2cc(C)c(Cl)cc2OC)c([N+](=O)[O-])c1,-14,0.9%,2.2,-34%[inhibitor],-1,0%,9%
CCC(=O)Nc1cc(Cl)ccc1C(=O)O,5,-22%,?,-28%,-34,-19%,15%
CCn1c(SCC(=O)Nc2oc(C)c3c(C)n[nH]c(=O)c23)nc2sc(C)c(C)c2c1=O,-4,-2.0%,·,9%[15.4 µM],-2,5%,·
COc1cccc(-n2cnnn2)c1,-14,-4.1%,5.3,19%,6,3%,15%
CC(=O)Nc1cc[n+](C(C)C(=O)c2ccc(Cl)cc2)cc1 (stereo not given),-6,·,1.5,1%,10,8%,17%
CCOC(=O)CN1CC23C=CC(O2)C(C(=O)NCc2ccc(C)cc2)C3C1=O (stereo not given),0,1.0%,-1.5,?,·,7%,22%
N#CC1=C(N)SC(N)=C(C#N)C1CCC1CCCCC1,·,·,?,·,1,·,?
CCOc1ccc(OCc2cccc(C(=O)Nc3ccc(CN4CCCCC4)cc3)c2)cc1,-25,-1.4%,3.8,-23%,0,21%,13µM*
CCOc1ccc2[nH]c3c(NCCO)ncnc3c2c1,4,3.7%,-1.0,37%,4,?,-6%
CSc1cccc(NC(=S)N2CCCN(Cc3ccc(F)cc3)C2)c1,-24,·,-1.3,-25%[15.4 µM],4,-5%,4%
CN(C)C=Nc1ncc2c3ccccc3n(Cc3ccccc3)c2c1C#N,3,32µM*,2.6,-19%,-12,10%,-4%
O=C(NNC(=O)c1ccc2ccccc2n1)c1ccc(O)cc1,2,-1.5%,·,23%,-7,-2%,·
COCCCn1c(Cc2csc(Nc3ccccc3)n2)nnc1SCC(N)=O,-13,-0.4%,0.7,-12%,-36,-5%,32µM*

# 3 structures already listed, sorted by formula weight, rising:
SMILES,D2 PAM,ClpP mod,Menin-MLL FL inh,gsp agonist,TRPV1 potentiator,gsp antagonist,Sfp PPTase inh
COc1cccc(-n2cnnn2)c1,-14,-4.1%,5.3,19%,6,3%,15%
COc1ccc(OCC(=O)Nc2cc(C)c(Cl)cc2OC)c([N+](=O)[O-])c1,-14,0.9%,2.2,-34%[inhibitor],-1,0%,9%
CCOC(=O)CN1CC23C=CC(O2)C(C(=O)NCc2ccc(C)cc2)C3C1=O (stereo not given),0,1.0%,-1.5,?,·,7%,22%
